miR-21 FLuc: qHTS Assay for Modulators of miRNAs and/orActivators of miR-21; 340,000 tested, under 10 active; HeLa miR-21 FLuc reporter, luciferase, 48 h; AID 2288, 2010; Potency, µM (highest dose often 38.3 µM), for inactives: at the highest dose reporter change, positive = more light; active = well fitted rising curve with a large enough effect; inconclusive = small, poorly fitted or top-dose-only effect; inactive = no such curve, though single readings can be large or run the other way;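 note: % of control where 0% means no effect; miR-21 action dims this reporter so a rising signal means less miR-21 action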
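Luminescence from a firefly luciferase reporter carrying a miR-21 binding site downstream, stably expressed under a CMV promoter in HeLa cells that make miR-21 endogenously, reports miRNA modulation after 48 h compound exposure up to approximately 40uM final.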
Rango dissoc inh: qHTS Assay for Inhibitors of RanGTP induced Rango (Ran-regulated importin-beta cargo) - Importin beta complex dissociation; Snurportin-1 (Homo sapiens) + GTP-binding nuclear protein Ran (Homo sapiens) + Importin …; Biochemical FRET Rango-importin beta, RanGTP-induced dissociation; Potency, µM (series often up to 46.1 µM), for the others: at the top dose activity change, negative = inhibition; 0.071% of 340,000 active; AID 540253, 2011; active means falling FRET ratio curve, often poorly fitted, with flat reads before Ran was added; inconclusive means other falling curves, or compound fluorescence or quenching; inactive means flat or rising ratio curve;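 note: potency is the fitted concentration of half-maximal effect; % of control where 0% means no effect; nearly all actives have a fitted effect of over 45% in size; -100% = wells without RanGTP and RCC1; the record marks most hits as doubtful in a second field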
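Rango FRET biosensor (snurportin-1 IBB flanked by N-terminal EYFP and C-terminal CFP10) at 0.1 uM, with 0.25 uM importin beta in PBS, 1mM DTT, 0.02% Tween-20, 0.1% BSA. 0.6 uM Ran, 2mM GTP and 0.2 uM RCC1 were then added for 45 min at room temperature. Inhibition read as loss of FRET rise.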
GLA inh pH 4.5: qHTS Assay for Inhibitors of Human alpha-Galactosidase at pH 4.5; 230,000 tested, under 10 active; AID 1467, 2008; activity change, negative = inhibition, % at 105 µM; Alpha-galactosidase A (Homo sapiens), P06280; purified enzyme, 4-MU-alpha-Gal fluorescence, pH 4.5; inconclusive = small, poorly fitted or top-dose-only inhibition, or a rising curve; inactive = flat fitted curve, though single readings scatter; no compound was filed as active;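 note: 0% = full activity with enzyme and -100% = basal without enzyme; dose as in the result columns while the protocol names 77 µM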
Target sequence (P06280 whole entry, looked up): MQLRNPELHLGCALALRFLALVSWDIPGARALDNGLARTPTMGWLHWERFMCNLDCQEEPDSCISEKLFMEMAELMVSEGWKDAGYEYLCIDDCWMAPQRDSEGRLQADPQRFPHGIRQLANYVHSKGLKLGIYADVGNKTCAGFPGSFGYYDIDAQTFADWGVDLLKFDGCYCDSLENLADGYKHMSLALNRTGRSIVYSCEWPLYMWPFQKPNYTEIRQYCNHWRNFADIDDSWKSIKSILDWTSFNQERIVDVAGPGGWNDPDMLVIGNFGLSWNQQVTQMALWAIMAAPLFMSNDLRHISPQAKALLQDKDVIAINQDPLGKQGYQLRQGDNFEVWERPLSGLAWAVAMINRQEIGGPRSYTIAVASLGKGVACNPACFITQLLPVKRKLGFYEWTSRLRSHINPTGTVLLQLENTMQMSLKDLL
Rango complex inh: qHTS Assay for Inhibitors of Rango (Ran-regulated importin-beta cargo) - Importin beta complex formation. Importin subunit beta-1 (Homo sapiens), Q14974. Rango CFP/YFP FRET sensor + importin beta, 45 min. Potency, µM (titrated, usually from 92.2 µM), for the others: at the highest dose inhibition of complex formation. 0.031% of 340,000 active; active = rising FRET ratio curve, often small or poorly fitted; inconclusive = mostly compound fluorescence or quenching in the first reads; inactive = flat curves in all reads;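 note: potency is the fitted concentration of half-maximal effect; 0% = DMSO wells and 100% = buffer wells lacking importin beta; nearly all actives have a fitted effect of over 15% in size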
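FRET biosensor (snurportin 1 IBB flanked by EYFP and cerulean), 50 nM, with compound 5 min, then 0.125 microM importin beta in PBS, 1 mM DTT, 0.02% Tween-20, 0.1% BSA. CFP/YFP ratio read after 45 min at room temperature; pre-read flags interference.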
Starred values were filed as active, the others as inactive; ? = inconclusive; nt = not tested or not shown; [ ] = dose if it differs, or a comment. A portion of the library (hit frequency here may not be typical).

Results follow in this order: miR-21 FLuc, Rango dissoc inh, GLA inh pH 4.5, Rango complex inh
Cc1cc(C)cc(N2C(=O)C3CCCN3C2=S)c1 (stereo not drawn)
    -4%, 1%, nt, 0.6%
COC(=O)c1ccc(CSc2ncn[nH]2)o1
    -4%, 0%, 7, -0.7%
CCc1ccc(NC(=O)Nc2ccc3c(c2)CCC3)cc1
    -40%, 2%, nt, -1.4%
CC(C)N=C1NN=C(c2ccc(Cl)c(Cl)c2)CS1
    -44%, 7%, -2, -1.2%
Cc1ccc2nc(NC(=O)c3ccccc3F)sc2c1
    -10%, -15%, nt, 2.8%
O=C(Nc1ccc2sc3ccccc3c(=O)c2c1)c1ccccc1Cl
    -30%, ?, 2, ?
Fc1cccc(-c2cc3nc4c(c(N5CCC6(CC5)OCCO6)n3n2)CCCC4)c1
    -45%, -3%, 2, -2.7%
COC(=O)c1ccc(NC(=O)C(=O)N2CCN(C(=S)Nc3ccccc3OC)CC2)cc1
    1%, -9%, -4, 2.6%
CCOC(=O)C1(Cc2cccc(OC)c2)CCCN(Cc2cc(OC)c(O)c(OC)c2)C1 (stereo not drawn)
    0%, -13%, nt, -4.3%
CN(C)S(=O)(=O)c1ccc(Nc2nc(C3CC3)nc3c2nnn3Cc2ccccc2Cl)cc1
    0%, 9%, 2, 0.2%

Four compounds out of the list above, arranged by the value under GLA inh pH 4.5, smallest number first.
Compound	miR-21 FLuc	Rango dissoc inh	GLA inh pH 4.5	Rango complex inh
COC(=O)c1ccc(NC(=O)C(=O)N2CCN(C(=S)Nc3ccccc3OC)CC2)cc1	1%	-9%	-4	2.6%
CC(C)N=C1NN=C(c2ccc(Cl)c(Cl)c2)CS1	-44%	7%	-2	-1.2%
O=C(Nc1ccc2sc3ccccc3c(=O)c2c1)c1ccccc1Cl	-30%	?	2	?
COC(=O)c1ccc(CSc2ncn[nH]2)o1	-4%	0%	7	-0.7%

(list continues)
Results follow in this order: miR-21 FLuc, Rango dissoc inh, GLA inh pH 4.5, Rango complex inh
O=C(CSc1nc(=O)n2ccccc2n1)OCc1ccccc1
    nt, 36%, nt, -1.9%
CC(=O)Nc1cccc(NC(=O)c2ccc3c(c2)CCN3S(C)(=O)=O)c1
    12%, 2%, nt, 3.7%
CC1CCN(c2c(NCC3CCC(C(=O)NCCc4ccccc4)CC3)c(=O)c2=O)CC1 (stereo not drawn)
    -14%, 6%, 5, -4.2%
CCn1c(CN2CCN(c3cccc(C)c3C)CC2)n[nH]c1=S
    3%, -10%, 5, 4.8%
CN1C(=S)SC(/[N+]([O-])=C\c2cccs2)C1(C)C (stereo not drawn)
    -4%, -4%, 2, 0.1%
Cc1nc2sc(C(=O)Nc3ccccc3)c(N)c2c(C)c1[N+](=O)[O-]
    -52%, -1%, -7, -0.3%
Cc1ccc(C(=O)Nc2c(-c3cccs3)nc3cc(C)ccn23)cc1
    2%, 11%, -6, 6.4%
Cc1cc(=O)oc2cc(OCC(O)CN3CCN(c4ccccc4)CC3)ccc12 (stereo not drawn)
    -5%, -6%, 7, -0.3%
CCN1CC2([N+](=O)[O-])CC=C(OC)C([N+](=O)[O-])(C1)C2 (stereo not drawn)
    -1%, 12%, 7, 2.9%
COC1=C/C(=C/c2c(N)n3nc(CC(=O)N4CCCCC4)sc3nc2=O)C=CC1=O
    3%, ?, nt, ?
Cc1cc2c3c(c1)C(C)(c1ccccc1)CC(C)(C)N3C(=O)C21C(C#N)=C(N)OC2=C1C(=O)CC(C)(C)C2 (stereo not drawn)
    ?, -6%, -28, -0.9%
COc1cccc(-c2nc(CCl)cs2)c1
    -26%, -18%, -10, 0.1%
COC(=O)C1=C(C)NC(=O)/C1=C/c1ccc(CNS(=O)(=O)c2ccc(C)cc2)o1
    0%, 2%, -3, 3.6%
O=C(NCc1ccccc1)c1ccc(-c2ccccc2F)o1
    -38%, -1%, -4, -1.6%
CN(C)c1ccc(NC(=O)c2cnsn2)cc1
    13%, 2%, 5, -2.8%
CCn1cc(/C=C(\NC(=O)c2ccc(OC)c(OC)c2)C(=O)NCCN2CCOCC2)c2ccccc21
    3%, -5%, nt, ?
COc1cccc(C(=O)OCC(=O)Nc2ccccc2N2CCOCC2)c1
    -2%, -2%, -11, -4.2%
Cc1ccc(C(=O)N2CCCC2)c(F)c1F
    0%, -2%, 11, 0.0%
Cc1cc(Cl)c(S(=O)(=O)Nc2cc(S(=O)(=O)N3CCOCC3)ccc2F)cc1OCC(N)=O
    -2%, -14%, -5, -0.6%
O=C(Nc1ccc(N2CCOCC2)nc1)c1c(F)cccc1F
    -48%, 4%, -8, -0.5%
O=C1NC(Cc2c[nH]c3ccccc23)C(=O)N1c1ccc(F)cc1 (stereo not drawn)
    2%, -1%, 5, -0.3%
O=c1c2sccc2nc(SCc2cc(=O)n3cc(Br)ccc3n2)n1Cc1ccccn1
    -18%, -13%, -7[21.1 µM], ?
O=C(NNC(=S)NC(=O)c1ccco1)c1ccc(F)cc1
    12%, 4%, -4, 0.8%
COc1nc(C)nc2c1sc(=S)n2C
    -6%, 0%, 0, 4.6%
O=C(NCCCn1ccnc1)c1cc2c(s1)CCCCC2
    -19%, -13%, 1, 0.6%
COc1cccc(Nc2ncnc3nc[nH]c23)c1
    -27%, -6%, 3, 0.3%
CSc1ccccc1NC(=O)Cn1nc([N+](=O)[O-])cc1C
    4%, 0%, 0, 1.5%
CCOc1ccc(CC(=O)Nc2ccc(-c3ccc4nnc(C)n4n3)cc2)cc1
    15%, -4%, -1, 4.2%
CCOC(=O)c1cccc(NC(=O)CS(=O)(=O)Cc2nc(-c3cccc(OC)c3)oc2C)c1
    6%, -15%, -14, -0.8%
CCC(C)NC(=O)CSc1nnc(-c2ccncc2)n1-c1ccc(OC)cc1 (stereo not drawn)
    -8%, -9%, 8, -1.9%
CCCCOc1ccc(C(=O)NCC(=O)OCC(=O)c2c(N)n(C)c(=O)n(C)c2=O)cc1
    nt, 7%, nt, -0.1%
COCCC(=O)N1CCC(Oc2ccc(C(=O)N3CCCC(CCCO)C3)cc2)CC1 (stereo not drawn)
    0%, 0%, nt, -0.9%
COc1ccc(C(=O)C(/C=N/O)=N/Nc2ccc(F)cc2)cc1
    6%, -13%, -9, ?
CCCCC(=O)N/N=C(\C)CC(=O)Nc1cc(Cl)ccc1OC
    -3%, -1%, 5, 1.1%
C/C(=N\NC(=S)Nc1cccc(C)c1)c1ccccc1
    -25%, -7%, -12, 1.1%
O=C(Cc1ccc(-n2cccc2)cc1)N1CCc2ccccc21
    -23%, 3%, -8, 2.9%
CN(c1ccc(C(=O)NCCSC(C)(C)C)cc1)S(C)(=O)=O
    -36%, -8%, 6, -3.2%
COc1ccc(CNC(=O)c2cc(S(=O)(=O)N3CCCC3)cn2C)cc1
    1%, 6%, nt, 1.6%
COc1ccc(CNC(=O)C2COc3ccccc3O2)cc1 (stereo not drawn)
    -59%, 26%, -9, 2.2%
Cc1ccc(C(=O)Oc2cccc(NC(=O)c3ccco3)c2)cc1S(=O)(=O)N1CCC(C)CC1
    -17%, -9%, -5, 0.0%
Cc1cc(=O)oc2cc(OCCC[n+]3ccccc3)ccc12
    1%, 13%, 5, -0.2%
COC(=O)CS(=O)(=O)c1cc([N+](=O)[O-])ccc1NC(=O)OC
    0%, -8%, -4, 0.0%
COC(=O)c1ccc(C)c(-n2c(=O)n(Cc3ccccc3)c(=O)c3[nH]cnc32)c1
    -30%, 1%, nt, -1.2%
CCCc1cc(=O)[nH]c(SCC(=O)N(CCC#N)c2ccc3c(c2)OCCO3)n1
    nt, -1%, nt, 2.4%
CCn1c(COc2ccccc2C)nnc1SCC(=O)CC(=O)Nc1ccccc1OC
    -4%, -5%, -5, ?
COc1cc([N+](=O)[O-])ccc1NC(=O)Cn1ccsc1=N
    8%, 1%, 10, 0.0%
COC(=O)CN(C)C1CC(=O)N(c2ccc(Cl)cc2)C1=O (stereo not drawn)
    1%, -4%, -3, 0.1%
CC(=O)N1CCN(CCN=CC2=C(O)CC(c3ccco3)CC2=O)CC1 (stereo not drawn)
    4%, ?, -3, 6.5%
COc1cccc(CC(NC(C)=O)C(=O)NC2CCN(S(=O)(=O)c3ccc(NC(C)=O)cc3)CC2)c1 (stereo not drawn)
    4%, 2%, 1, 3.6%
O=C1/C(=C/c2ccc(O)cc2)CCc2ccc([N+](=O)[O-])cc21
    -27%, 20%, 0, -2.9%

New compounds follow.
Results follow in this order: miR-21 FLuc, Rango dissoc inh, GLA inh pH 4.5, Rango complex inh
O=C(Cc1ccccc1)NCC(=O)N1CCCCCC1
    -20%, -5%, -1, -2.1%
O=c1oc(-c2ccccc2)c(-c2ccccc2)c2ccccc12
    nt, 4%, nt, 1.8%
COc1cccc(CN2CCC(n3nccc3NC(=O)CCOc3ccccc3)CC2)c1
    2%, 7%, nt, 2.8%
COc1ccc(CCNC(=O)CSc2nnnn2-c2ccccc2OC)cc1OC
    -3%, 2%, -3, 0.2%
COCCSc1nc2c(c(=O)[nH]c(=O)n2C)n1CCCc1ccccc1
    -15%, -10%, nt, -3.1%
Cc1ccc(C2NC(c3ccc(C)cc3)C(C)C(=O)C2C)cc1 (stereo not drawn)
    -3%, -3%, -7, 0.8%
CCNc1nc(NC(C)C)nc(N(C#N)CCOc2ccccc2)n1
    -1%, 15%, -8, 0.3%
COC(=O)c1[nH]c(C)c(/C(O)=C2\C(=O)C(=O)N(CCCN3CCOCC3)C2c2ccccn2)c1C (stereo not drawn)
    1%, -13%, -8, 0.2%
Cc1ccc(C)c(S(=O)(=O)N2CCN(C(=O)CCc3nc4ccccc4c(=O)[nH]3)CC2)c1
    nt, -25%, nt, ?
O=C(NCCc1ccccc1)C(=O)NCC1CCNCC1
    4%, nt, 6, nt
CN(C(=O)c1cccc(NC(=O)Cc2ccc(NC(=O)C3CCN(C(=O)C4CCCCC4)CC3)cc2)c1)C1CCC1
    nt, 0%, nt, -2.0%
CCOC(=O)Cn1nc(C)c(NC(=O)COc2cccc(Cl)c2)c1C
    7%, 0%, -11, -1.0%
O=S(=O)(NCc1ccccn1)c1ccc2ccccc2c1
    -10%, -1%, nt, -0.7%
O=C(c1cccs1)N(Cc1ccc(Cl)cc1)C1CCS(=O)(=O)C1 (stereo not drawn)
    -5%, -1%, nt, 0.6%
Cc1cc(NC(=O)COc2ccccc2)ccc1Cl
    -49%, 12%, nt, -0.6%
COc1cccc(C(=O)NNC(=O)c2ccccc2Br)c1
    -12%, 4%, -20, -0.7%
Cc1ccc(CC(=O)N2CCN(c3ccccn3)CC2)cc1
    -20%, 13%, -2, -7.2%
Cc1occc1C(=O)N/N=C/C1=C(N2CCOCC2)C(=C/c2ccc(Cl)cc2Cl)/CC1
    nt, -14%, nt, ?
CN(Cc1ccccc1)C(=O)C1CCN(S(=O)(=O)c2cc([N+](=O)[O-])ccc2Cl)CC1
    2%, 17%, -3, 0.3%
COc1ccc(S(=O)(=O)N2CCOC2CNC(=O)C(=O)NCc2ccccc2OC)cc1 (stereo not drawn)
    2%, 1%, nt, 2.7%
O=C(CSc1n[nH]c(=O)n1-c1cccnc1)N1CCOCC1
    -2%, 12%, -4, 1.0%
O=C(CN1CCC(C(=O)c2cccc(Cl)c2)CC1)Nc1cccc(C(=O)O)c1
    -4%, 0%, -24, 3.3%
Cc1cccc(CN2CCN(Cc3cnn(-c4ccccc4F)c3)CC2CCO)n1 (stereo not drawn)
    -2%, 0%, 6, 2.6%
